Compound activity as filed in PubChem BioAssay.
rRNA inh HTS = inhibits bacterial ribosomal RNA function over humanized ribosomes; E. coli WT GFP vs humanized-ribosome RFP mutants, fluorescence, 24 h; stronger effect = lower value; DMSO median 0, no signal -100; GFP signal change (wild-type ribosome), % (concentration not given with the values); 350,000 tested, 1.6% active;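 active = significant combined selectivity score with lowered wild-type GFP, culture density cut under 30%, mutant RFP and density less affected; inactive = any of these conditions unmet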; note: one replicate is shown; some compounds called inactive have numbers as strong as hits
Beta2AR agonist = activates human beta-2 adrenergic receptor causing internalization; P07550; Am2.2-beta2AR cells, FAP receptor internalization, flow cytometry; reference of the scale not given here; response, % (no concentration beside the values); 340,000 tested, 0.43% active; AID 504454;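 active = response above a set limit, near 3 SD of response in nonfluorescent compounds, cut at about 42% in these data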;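 note: stock transfer was 100 nL into about 11 µL; a reference agonist was the positive control; negative values mostly stem from fluorescent compounds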
Target sequence (P07550 whole entry, looked up): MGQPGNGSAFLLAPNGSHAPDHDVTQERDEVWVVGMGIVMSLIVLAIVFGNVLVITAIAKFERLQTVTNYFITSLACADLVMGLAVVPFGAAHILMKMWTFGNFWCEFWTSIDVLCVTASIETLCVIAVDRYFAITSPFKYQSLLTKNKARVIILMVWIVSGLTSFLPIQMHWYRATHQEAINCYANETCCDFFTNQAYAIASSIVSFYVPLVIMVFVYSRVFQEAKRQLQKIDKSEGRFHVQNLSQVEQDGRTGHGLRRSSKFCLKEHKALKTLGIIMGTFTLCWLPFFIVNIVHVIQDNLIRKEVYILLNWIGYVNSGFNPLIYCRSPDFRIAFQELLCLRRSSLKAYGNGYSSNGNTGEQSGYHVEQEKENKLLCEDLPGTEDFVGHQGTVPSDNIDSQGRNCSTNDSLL
rRNA inh HTS OD600 = recorded beside rRNA inh HTS, whose call it bears; OD600 change, %; measured here: OD600 growth;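 optical density of the mix in the first replicate; 0 = DMSO median and -100 = no signal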
rRNA inh HTS RFP = further read-out of rRNA inh HTS, marked with its call; RFP signal change, %; measured here: RFP humanized mutant strains;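 first replicate; 0 = DMSO median and -100 = no signal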
* = called active by the depositor; & = joins results of further samples. These rows are one share of the data; the hit share may differ from the screen's.

SMILES	rRNA inh HTS	rRNA inh HTS OD600	rRNA inh HTS RFP	Beta2AR agonist
CCN1CCN(c2ccc(S(=O)(=O)N3CCCCC3)cc2NC(=O)CCNC(C)=O)CC1	12	5	3.2	-5
CCOCc1c(C(=O)OCC(=O)NCc2ccc(F)cc2)oc2ccccc12	1	3	-0.4	-10
CN(C(=O)c1ccc(NC(=O)Cc2ccc(NC(=O)C3CCCN(C(=O)C4CCC4)C3)cc2)cc1)C1CCCC1 (stereo unspecified)	4	-12	-2.7	-3
COc1cc2c(cc1OC)CN(C(=O)CCNC(=O)c1ccc(Br)cc1)CC2	3	5	-3.2	-1
CC12C=CC(=O)C=C1C(F)CC1C3CCC(O)(C(=O)CO)C3(C)CC(O)C12F (stereo unspecified)	12	13	1.4	0
COc1ccc2[nH]c3c(c2c1)CCN1C(=O)C(CC(=O)NCCCn2ccnc2)C[C@H](C(=O)N2CCOCC2)[C@@]31CCC1CCCC1 (stereo partly specified)	0	5	1.3	-17
Cc1cccc[n+]1CC(=O)c1ccc([N+](=O)[O-])cc1	9	6	2.2	-4
CC(C)C[C@H]1CN([C@@H](CC(C)C)CN2CCC[C@@H]2CN2C(=O)C(=O)NC[C@@H]2Cc2ccccc2)C(=O)C(=O)N1CC1CCCCC1	-9	-28	7.3	5
NC(C(=O)O)C1ON=C(Cl)C1O (stereo unspecified)	7	7	-2.9	-4
Cc1ccc(S(=O)(=O)CCC(=O)OCc2nnc(-c3ccc([N+](=O)[O-])cc3)o2)cc1	0	12	-2.6	-5
CC1CCc2sc(C(=O)NCC3CCCO3)cc2C1 (stereo unspecified)	-9	-9	-1.9	-1
CCN1CCN(c2ccc(S(=O)(=O)N3CCOCC3)cc2NC(=O)CC(NC(C)=O)c2ccccc2)CC1 (stereo unspecified)	18	2	-1.4	-5
O=C1C2CCC(C2)C1CN1CCOCC1 (stereo unspecified)	-2	7	-0.9	-5
OC(COc1ccccc1)CN1CCCCC1 (stereo unspecified)	13	2	-2.7	0
O=S(=O)(O)c1cc(O)c2ccc(Nc3ccccc3)cc2c1	-4	5	14	-5
Cc1ccsc1C(=O)OCC(=O)NC1CCCC1	5	5	0.2	2
COC(=O)[C@]1(C)N[C@H](CN(C)C(=O)c2ccc(F)cc2)[C@@H]2C(=O)N(C)C(=O)[C@@H]21	12	17	-0.6	4
CCOc1cc(C(=O)Nc2ccc(C(=O)NCCN(CC)CC)cc2)ccc1OCC(=O)N1CCOCC1	6	4	1.0	-3
CC(C)C[C@@H](CN)NC(=O)c1nc[nH]c1C(=O)N[C@@H](C)C(=O)CNC[C@H](C)NC(=O)c1nc[nH]c1C(=O)N[C@@H](C)C(=O)O	16	11	2.1	-4
CCN(CC(=O)Nc1c(F)cccc1F)C(=O)c1cccc(S(=O)(=O)N2CCCc3ccccc32)c1	-8	-22	1.4	4
N#CC1(NC(=O)COC(=O)C2CCN(S(=O)(=O)c3ccc4c(c3)OCCO4)CC2)CCCCC1	0	0	1.0	-6
CCc1cccc(NC(=O)COC(=O)c2cc(=O)c3ccccc3o2)c1	13	12	1.3	2
Cc1nnc(SCC2=C(C(=O)O)N3C(=O)C(NC(=O)COc4ccccc4)C3SC2)s1 (stereo unspecified)	12	18	-2.4	5
CCOc1ccc(C(=O)NCC(=O)OCC(=O)N(C)CC(=O)Nc2ccccc2CC)cc1OCC	6	7	-1.9	-4
Cc1cccc(C2=NN(c3ccccc3)[C@H](CO)[C@H]2c2ccc(Cl)cc2)c1	4	16	0.7	2
CC(=O)Nc1ccc(S(=O)(=O)NCCC(=O)NC2CCCCCC2)cc1	8	17	2.1	0
CC12CCC3(CC1CCC1OC12)OCCO3 (stereo unspecified)	11	7	2.3	-3
Cc1ccc(S(=O)(=O)NCC(=O)OC(C)C(=O)NCc2ccc3c(c2)OCO3)cc1 (stereo unspecified)	2	11	1.0	12
O=C(CC(c1ccccc1)C1CCCCC1=O)c1ccccc1 (stereo unspecified)	-4	-12	-0.6	-12
CCCN(C(=O)COC(=O)c1nc2nccc(C)n2n1)C1CCS(=O)(=O)C1 (stereo unspecified)	8	7	-0.5	7

Record cards, as listed above.
Entry for `CCN(CC(=O)Nc1c(F)cccc1F)C(=O)c1cccc(S(=O)(=O)N2CCCc3ccccc32)c1` : rRNA inh HTS: -8; rRNA inh HTS OD600: -22; rRNA inh HTS RFP: 1.4; Beta2AR agonist: 4
Entry for `Cc1ccc(S(=O)(=O)NCC(=O)OC(C)C(=O)NCc2ccc3c(c2)OCO3)cc1` (stereo unspecified) : rRNA inh HTS: 2; rRNA inh HTS OD600: 11; rRNA inh HTS RFP: 1.0; Beta2AR agonist: 12
Entry for `N#CC1(NC(=O)COC(=O)C2CCN(S(=O)(=O)c3ccc4c(c3)OCCO4)CC2)CCCCC1` : rRNA inh HTS: 0; rRNA inh HTS OD600: 0; rRNA inh HTS RFP: 1.0; Beta2AR agonist: -6

Next part:
SMILES	rRNA inh HTS	rRNA inh HTS OD600	rRNA inh HTS RFP	Beta2AR agonist
COc1cc2c(cc1OC)[C@@H](NC(=O)C(C)C)[C@H](OCc1ccccc1)C2	5	7	1.3	6
NC1=NN(c2ccccc2)C(=O)C1	4	1	-3.4	7
COc1ccc(C(=O)NCCCn2nc(C)cc2C)cc1S(=O)(=O)N1CCOCC1	7	3	-0.5	-3
Cc1ccccc1N=C1C(=O)Nc2ccccc21	-5	6	1.0	-6
F[B-](F)(F)c1cc2ccccc2s1	-3	-3	-4.4	-4
C[C@H](CO)N1C[C@H](C)[C@@H](CN(C)S(=O)(=O)c2cccs2)Oc2ccc(NC(=O)Cn3cnnn3)cc2C1=O	0&0	2&-2	2.7&3.8	-2
CCOC(=O)c1cc(C(=O)NNC(=O)c2cccc([N+](=O)[O-])c2)c(C)nc1C	8	5	-6.8	-6
Oc1ccccc1-c1n[nH]c(-c2ccccc2O)n1	18	18	-0.4	9
CCOC(=O)C1CC(CN2C(=O)c3ccccc3C2=O)OC1=O (stereo unspecified)	13	5	1.8	2
COc1ccc(-c2oc3cc(OC(C)=O)cc(OC(C)=O)c3c(=O)c2OC)cc1	-58	-78	-21	9
O=C(Nc1cccc(S(=O)(=O)N2CCOCC2)c1)C1CCCCN1S(=O)(=O)c1ccccc1 (stereo unspecified)	-20	-14	-1.1	0
Oc1ccc(Cl)cc1C=NN1CCCCCC1	0	-39	-18	3
O=C(NCc1ccco1)c1ccc(C(=O)NCc2ccco2)cc1	8	11	1.6	-5
CC[C@]12c3[nH]c4ccc(Cl)cc4c3CCN1C(=O)[C@@H](CC(=O)NC/C=C(\C)CCC=C(C)C)C[C@@H]2C(=O)N1CCN(C(=O)C2CC2)CC1	12	13	4.4	6
CC1CC(C(O)c2ccccn2)C(=O)C(C(O)c2ccccn2)C1 (stereo unspecified)	9	10	-2.7	-2
CN(C(=O)c1cc(Cl)c2c(c1)OCCO2)c1c(N)n(Cc2ccccc2)c(=O)[nH]c1=O	7	8	-1.0	-8
Cc1ccc(C(=O)OCC(=O)Nc2ccc(Cl)cn2)cc1S(=O)(=O)N1CCOCC1	5	1	1.4	0
CCC(C)Cn1cnc2c(SCc3ccccc3F)nc(N)nc21 (stereo unspecified)	0	11	4.7	-9
O=C(COC(=O)c1ccccc1O)NNC(=O)c1ccc(Br)cc1	4	0	0.2	-15
O=C(Nc1ccccc1)N1CCN(c2ccccc2)CC1	5	7	-3.2	0
COc1ccccc1S(=O)(=O)N1CCn2cccc2C1C (stereo unspecified)	7	-5	1.0	-3
COc1ccc(C)cc1N1CC(C(=O)OCc2nc(N)nc(Nc3ccccc3C)n2)CC1=O (stereo unspecified)	-4	-4	-2.2	0
COc1ccc(OCCC(=O)Nc2cc3c(cc2C(=O)O)OCCCO3)cc1	-8	-4	0.4	8
CC(=O)NC1=CC(=C[N+](=O)[O-])C=C1O	-5	7	11	-9
Cc1ccc(S(=O)(=O)N2CCN(C(=O)COC(=O)c3ncc(Cl)c(Cl)c3Cl)CC2)c(C)c1	-23*	-16*	-5.3*	0
COc1ccc2nc(N3C(=O)C(O)=C(C(=O)c4ccco4)C3c3ccco3)sc2c1 (stereo unspecified)	14	10	-0.7	8
COc1cc(OC)c(C(=O)OCC(=O)Nc2c(C)n(C)n(-c3ccccc3)c2=O)cc1OC	-3	-4	1.5	3
O=[N+]([O-])c1ccc(SNc2ccccc2)c([N+](=O)[O-])c1	-16	-4	-5.0	-10
CCOC(=O)C1CCCN(C(=O)c2cccc(S(=O)(=O)N(C)c3ccc(OC)cc3)c2)C1 (stereo unspecified)	-4	-1	1.9	-5
CCN(CC(=O)Nc1ccc(NC(C)=O)cc1)C(=O)CN1C(=O)NC(C)(c2ccc3ccccc3c2)C1=O (stereo unspecified)	12	7	-2.3	-4
CCN(CC(=O)NCc1cccs1)CC(=O)Nc1cccc(S(N)(=O)=O)c1	-8	-8	8.3	14
O=C1CCC[C@@H]2CC(N3CCCCC3)C[C@@H]3CCN1[C@H]23 (stereo partly specified)	27	3	1.2	4
CCn1cc(C(=O)NC2CCCC2)c(=O)c2cc(S(=O)(=O)N3CCOCC3)ccc21	8	4	4.6	-3
Brc1ccc(Br)c2cnccc12	8	14	-1.3	-2
Fc1ccc(-c2ccc3c(c2)C2CC3CCN2Cc2ccc3c(c2)OCO3)cc1 (stereo unspecified)	-7	-59	7.2	1
O=C(c1cccc(Cl)c1)N1CCC2CC1c1cc(-c3ccccc3)ccc12 (stereo unspecified)	7	-6	-3.2	0
COC(=O)[C@H](CC(C)C)NC(=O)Cn1cnc2c(OCc3ccccc3)ncnc21	-1	-2	-0.5	0
Cc1ccc(S(=O)(=O)N2CCCCC2)cc1C(=O)N1CCN(CCO)CC1	5	10	-3.7	-1
NC(=O)c1ncn([C@@H]2O[C@H](CNS(=O)(=O)c3cc4ccccc4s3)[C@@H](O)[C@H]2O)n1	4	9	-3.1	-2
O=C(NCC(c1cccs1)N1CCOCC1)C1CCN(S(=O)(=O)c2cc(Cl)ccc2Cl)CC1 (stereo unspecified)	-6	2	2.5	-5
CCOc1ccc(CCNC(=O)COC(=O)c2cccc(S(=O)(=O)N(C)C)c2)cc1OCC	-6	-7	-1.9	-2
Cc1ccc(C)c(NC(=O)C(c2ccccc2)N2CCN(CC(=O)NC3CC3)CC2)c1 (stereo unspecified)	1	0	-0.1	1
CCC1CCC2(CC1)NC(=O)N(CC(=O)Nc1ccc(OC)cc1)C2=O (stereo unspecified)	0	2	0.6	-3
N#CC(=C1C=CC(=NO)C(Cl)=C1)c1ccc(Cl)cc1	-8	1	-0.6	0
O=S(=O)(O)c1cc(O)c2cc(Nc3ccccc3)ccc2c1	1	13	0.7	-2
C=C(C)COc1ccc2c(c1)CCC1C2CCC2(C)C(=O)C(=NO)CC12 (stereo unspecified)	10	8	1.2	6
COC(=O)c1ccc2nc3c(cc2c1)[C@@H]1CCN2C(=O)CCC[C@H](C3)[C@H]12	10	5	4.0	-5
CN(Cc1ccco1)C(=O)CSc1nc(C2CC2)n(-c2ccccc2)n1	4	-2	-1.0	-7
CCOC(=O)C1CC2=C(CC(C)(C)CC2=O)N(CCOC)C1=O (stereo unspecified)	8	6	-1.3	-3
CCCCN(C)S(=O)(=O)c1cc2c(cc1Br)CCN2C(=O)C1CC1	-20	-43	-6.5	-5
Cc1ccc(-c2nc3ncccc3o2)cc1NC(=O)c1ccc2c(c1)OCO2	1	0	-0.2	0
O=C(O)CC1Cc2ccccc2C1C(=O)O (stereo unspecified)	17	18	-0.2	-13
CCNc1nnc(SCC(=O)c2cc(C)n(C3CC3)c2C)s1	0	-3	1.9	3
N#CCOc1ccccc1CNC[C@H]1O[C@@H](n2cnc(C(N)=O)n2)[C@H](O)[C@@H]1O	9	9	-3.2	-5
NC(=O)C1C(=O)c2ccccc2C1(C[N+](=O)[O-])c1ccccc1 (stereo unspecified)	-2	-9	0.3	5
N#Cc1ccc(CCc2ccccc2)[nH]c1=O	9	9	3.8	-1
Cc1cc(C)c(CN2CCN(CCCn3cnc(C(=O)Nc4ccc(C)c(C)c4)n3)CC2)c(C)c1	-56	-78	-15	32
O=C(CN1C(=O)NC2(CCCC2)C1=O)N1CCCSC1=Nc1ccccc1	16	16	1.3	-1
O=C1C(=Cc2ccco2)CCC1=Cc1ccco1	19	20	7.5	17
CN(C(=O)c1cccc(NC(=O)Cc2ccc(NC(=O)C3CCN(C(=O)C4CCCC4)CC3)cc2)c1)C1CCCCC1	-5	-10	-0.7	3
NNC(=O)C1C(O)CCC2CN3CCc4c([nH]c5ccccc45)C3CC21 (stereo unspecified)	36	15	2.6	1

In the list so far, 7 contain fluorine.
SMILES	rRNA inh HTS	rRNA inh HTS OD600	rRNA inh HTS RFP	Beta2AR agonist
CCOCc1c(C(=O)OCC(=O)NCc2ccc(F)cc2)oc2ccccc12	1	3	-0.4	-10
CC12C=CC(=O)C=C1C(F)CC1C3CCC(O)(C(=O)CO)C3(C)CC(O)C12F (stereo unspecified)	12	13	1.4	0
COC(=O)[C@]1(C)N[C@H](CN(C)C(=O)c2ccc(F)cc2)[C@@H]2C(=O)N(C)C(=O)[C@@H]21	12	17	-0.6	4
CCN(CC(=O)Nc1c(F)cccc1F)C(=O)c1cccc(S(=O)(=O)N2CCCc3ccccc32)c1	-8	-22	1.4	4
F[B-](F)(F)c1cc2ccccc2s1	-3	-3	-4.4	-4
CCC(C)Cn1cnc2c(SCc3ccccc3F)nc(N)nc21 (stereo unspecified)	0	11	4.7	-9
Fc1ccc(-c2ccc3c(c2)C2CC3CCN2Cc2ccc3c(c2)OCO3)cc1 (stereo unspecified)	-7	-59	7.2	1
